From PubChem
RN4220 kill = growth inhibition of S. aureus RN4220, primary screen, OD600; 16 h; AID 1259311, 2017; inhibition, % (test concentration not listed); actives 0.33% (n = 330,000);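 active = z-score of -3 or lower and OD600 up to 0.18 on both plates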;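 also: plate controls were untreated cells for no effect and reference antibiotic for full effect; stock transfer was 100 nL into about 80 µL; one replicate is shown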
Bead autofluor = counter-screen for toxin protease inhibitors: compound fluorescence; compound autofluorescence counterscreen, microsphere flow cytometry; active compounds read high; fluorescence intensity (no concentration beside the values); actives 3.1% (n = 360,000); AID 624483;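 active = at least 3 SD above the mean of all compounds, about 16000 in these data; inconclusive = too few beads counted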;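 also: 100 nL of 1 mM stock went into each well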
PrP 5UTR inh = inhibition of PrP 5' UTR reporter expression | inhibition, % (concentration not given with the values) | actives 0.35% (n = 340,000) | cell-based PrP 5' UTR mRNA reporter, plate reader;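 active = every replicate at 50% or more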;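 also: 0 = median of the neutral control wells; tested in H4 reporter cells; numbers are from one replicate; inactives centre near -14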
BJeLR viability = MLPCN primary cell-based screen for lethality selective to Ras in HRASV12 cells; BJeLR (HRASV12) viability, CellTiter-Glo ATP luminescence, 48 h; reference of the scale not given here; inhibition, % (concentration not given with the values); actives 0.17% (n = 300,000); AID 1554, 2009;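 active = replicate mean above 50%; inconclusive = above 50% but judged a plate artefact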;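 also: 50 nL library stock added to about 25 µL; numbers are from one replicate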
Mtb hypoxia rep = PubChem AID 1159583; M. tuberculosis hypoxia-regulated fluorescent reporter, fluorescence; fluorescence inhibition, % (concentration not given with the values); actives 0.1% (n = 300,000);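 active = 35 to 45% if threefold the growth effect, above 45% if 1.5-fold the growth effect; inactive = the rest, general growth blockers included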;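 also: wells of about 50 µL received 100 nL stock; 0% = vehicle wells and 100% = reference inhibitor wells; whole bacteria with a GFP reporter of the hypoxia response; strong numbers were not always called active; many hits fall short of the cut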
ugtP null kill = growth inhibition of ugtP-null S. aureus, primary screen, RN4220 ugtP deletion, OD600. AID 1259309, 2017. actives 0.54% (n = 330,000). growth inhibition, % (concentration not given with the values). 16 h; some inactives read as strong as hits;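 active = z-score under -3 and OD600 up to 0.15 on both plates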;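 also: plate controls were untreated wells for no effect and antibiotic for full effect; wells of about 80 µL received 100 nL stock; the first replicate is given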
Mtb hypoxia rep growth = second read-out of Mtb hypoxia rep, no call of its own (marks repeat the call); growth inhibition, %; measured here: M. tuberculosis growth (absorbance);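 0% = vehicle and 100% = reference antibiotic; read after six days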
* hit, by the source's call.

How did Cc1ccccc1OCC(O)Cn1c(NCc2ccccc2)nc2c1c(=O)[nH]c(=O)n2C (stereo unspecified) do in these assays?
RN4220 kill: 12; Bead autofluor: 3185; PrP 5UTR inh: -5; BJeLR viability: 1; Mtb hypoxia rep: -1; ugtP null kill: 1; Mtb hypoxia rep growth: -2

What do the screens show for `CN1CCc2nc(SCC(=O)Nc3ccc(OC(F)(F)F)cc3)c(C#N)c(-c3cccs3)c2C1`?
RN4220 kill: -1.5; Bead autofluor: 2300; PrP 5UTR inh: -59; BJeLR viability: -11; Mtb hypoxia rep: 6; ugtP null kill: 3; Mtb hypoxia rep growth: 3

How did COc1ccc(N2CCN(C(=O)COC(=O)CCOc3ccc(C)cc3)CC2)cc1 do in these assays?
RN4220 kill: -2.6; Bead autofluor: inconclusive; PrP 5UTR inh: -13; BJeLR viability: 11; Mtb hypoxia rep: 5; ugtP null kill: 8; Mtb hypoxia rep growth: -2

What do the screens show for `COC(=O)c1sc(NC(=O)CC(C)C)c(C(=O)OC)c1C`?
RN4220 kill: 4.9; Bead autofluor: 4798; PrP 5UTR inh: -12; ugtP null kill: 0

What do the screens show for `COc1cc(NC(=O)NCC2CCN(Cc3ccccc3Cl)CC2)cc(OC)c1OC`?
RN4220 kill: 2.3; Bead autofluor: 4551; PrP 5UTR inh: -24; BJeLR viability: 3; Mtb hypoxia rep: 7; ugtP null kill: 9; Mtb hypoxia rep growth: 1

What do the screens show for `CCCCOc1ccccc1NC(=O)C=C(C)C`?
RN4220 kill: 6.0; Bead autofluor: 10670; PrP 5UTR inh: -10; BJeLR viability: -4; Mtb hypoxia rep: 5; ugtP null kill: 0; Mtb hypoxia rep growth: -1

Results for COc1cccc(N(CC(=O)Nc2cccc(C(C)=O)c2)S(C)(=O)=O)c1 ?
RN4220 kill: 7.5; Bead autofluor: 3038; PrP 5UTR inh: -17; BJeLR viability: 0; Mtb hypoxia rep: 12; ugtP null kill: -7; Mtb hypoxia rep growth: 7

How did COC(=O)c1ccc(CNC(=O)CCc2c[nH]c3ccccc23)cc1 do in these assays?
RN4220 kill: -1.3; Bead autofluor: 3982; PrP 5UTR inh: -17; BJeLR viability: 1; Mtb hypoxia rep: 5; ugtP null kill: 9; Mtb hypoxia rep growth: -10

Results for O=C(CCC(=O)c1ccc[nH]1)c1ccc(Cl)cc1 ?
RN4220 kill: 3.6; Bead autofluor: 9803; PrP 5UTR inh: -103; BJeLR viability: -11; Mtb hypoxia rep: 7; ugtP null kill: -7; Mtb hypoxia rep growth: 9

How did Cc1cc(C(=O)Nc2ccc(C)c(C)c2)n(-c2ccccc2)n1 do in these assays?
RN4220 kill: -0.3; Bead autofluor: 3621; PrP 5UTR inh: -15; BJeLR viability: 5; Mtb hypoxia rep: 14; ugtP null kill: 25; Mtb hypoxia rep growth: 11

How did Cc1ccc(Nc2nc(N)[nH]c(=O)c2N=O)cc1 do in these assays?
Bead autofluor: 4763; PrP 5UTR inh: -4; BJeLR viability: 11

How did CCC(=NCc1ccc(F)cc1)c1c(O)n(C)c(=O)n(C)c1=O do in these assays?
RN4220 kill: -1.5; Bead autofluor: 9231; PrP 5UTR inh: -9; BJeLR viability: 13; Mtb hypoxia rep: -13; ugtP null kill: -7; Mtb hypoxia rep growth: 13

Results for COc1cc(NC(=S)NCCSc2ccc(C)cc2)cc(OC)c1 ?
RN4220 kill: -1.0; Bead autofluor: 2379; PrP 5UTR inh: -39; BJeLR viability: -14; Mtb hypoxia rep: 6; ugtP null kill: 1; Mtb hypoxia rep growth: 5

How did Cc1ccc(Cc2nnc(SCC(=O)Nc3ccccc3Cl)[nH]c2=O)cc1 do in these assays?
RN4220 kill: 2.2; Bead autofluor: 5784; PrP 5UTR inh: 11; BJeLR viability: -3; Mtb hypoxia rep: 4; ugtP null kill: 6; Mtb hypoxia rep growth: 3

Results for CCOC(=O)C1Nc2c(cc(C(F)(F)F)cc2[N+](=O)[O-])C2c3ccccc3CC12 (stereo unspecified) ?
RN4220 kill: -3.5; Bead autofluor: 3990; PrP 5UTR inh: -16; BJeLR viability: -3; Mtb hypoxia rep: 18; ugtP null kill: 1; Mtb hypoxia rep growth: 12

Quoted from the results shown (five entries):
What do the screens show for `CN1CCc2nc(SCC(=O)Nc3ccc(OC(F)(F)F)cc3)c(C#N)c(-c3cccs3)c2C1`?
RN4220 kill: -1.5; Bead autofluor: 2300; PrP 5UTR inh: -59; BJeLR viability: -11; Mtb hypoxia rep: 6; ugtP null kill: 3; Mtb hypoxia rep growth: 3

How did COc1ccc(N2CCN(C(=O)COC(=O)CCOc3ccc(C)cc3)CC2)cc1 do in these assays?
RN4220 kill: -2.6; Bead autofluor: inconclusive; PrP 5UTR inh: -13; BJeLR viability: 11; Mtb hypoxia rep: 5; ugtP null kill: 8; Mtb hypoxia rep growth: -2

What do the screens show for `COC(=O)c1sc(NC(=O)CC(C)C)c(C(=O)OC)c1C`?
RN4220 kill: 4.9; Bead autofluor: 4798; PrP 5UTR inh: -12; ugtP null kill: 0

What do the screens show for `COc1cc(NC(=O)NCC2CCN(Cc3ccccc3Cl)CC2)cc(OC)c1OC`?
RN4220 kill: 2.3; Bead autofluor: 4551; PrP 5UTR inh: -24; BJeLR viability: 3; Mtb hypoxia rep: 7; ugtP null kill: 9; Mtb hypoxia rep growth: 1

What do the screens show for `CCCCOc1ccccc1NC(=O)C=C(C)C`?
RN4220 kill: 6.0; Bead autofluor: 10670; PrP 5UTR inh: -10; BJeLR viability: -4; Mtb hypoxia rep: 5; ugtP null kill: 0; Mtb hypoxia rep growth: -1

Remaining list, next part:
Results for CC(C)(C)NC(=O)C1CC2CCCCC2CN1 (stereo unspecified) ?
RN4220 kill: 2.2; Bead autofluor: 5157; PrP 5UTR inh: -20; BJeLR viability: 8; Mtb hypoxia rep: 5; ugtP null kill: -2; Mtb hypoxia rep growth: 8

How did CCCCNc1cnn(-c2ccccc2)c(=O)c1Cl do in these assays?
RN4220 kill: 3.2; Bead autofluor: 3345; PrP 5UTR inh: -33; BJeLR viability: -1; Mtb hypoxia rep: 12; ugtP null kill: 9; Mtb hypoxia rep growth: 13

How did COc1cccc(NC(=O)CSc2nc3scc(C)c3c(=O)[nH]2)c1 do in these assays?
RN4220 kill: 3.8; Bead autofluor: 3504; PrP 5UTR inh: -10; BJeLR viability: -3; Mtb hypoxia rep: 7; ugtP null kill: 15; Mtb hypoxia rep growth: 9

How did O=C(/C=C/c1ccc[nH]1)c1ccc(F)cc1 do in these assays?
RN4220 kill: 7.2; Bead autofluor: 2286; PrP 5UTR inh: -24; BJeLR viability: 1; Mtb hypoxia rep: 25; ugtP null kill: -4; Mtb hypoxia rep growth: 18

Results for CCOC(=O)c1cccc(NC(=O)c2ccc(F)cc2F)c1 ?
RN4220 kill: 8.2; Bead autofluor: 3998; PrP 5UTR inh: -38; BJeLR viability: -3; Mtb hypoxia rep: 23; ugtP null kill: 6; Mtb hypoxia rep growth: 10

How did COc1ccc(NC(=S)NCCCN2CCCC2=O)c(OC)c1 do in these assays?
RN4220 kill: 7.0; Bead autofluor: 2062; PrP 5UTR inh: -18; BJeLR viability: -8; Mtb hypoxia rep: 9; ugtP null kill: 10; Mtb hypoxia rep growth: 2

Results for CCOC(=O)Cn1cc(/C=N/NC(=O)c2cc3ccccc3o2)c2ccccc21 ?
Bead autofluor: 5797; PrP 5UTR inh: -8; BJeLR viability: -7

What do the screens show for `Cc1cc(-c2nn(-c3ccccc3F)cc2CN2CCCC(CO)C2)c(C)s1` (stereo unspecified)?
RN4220 kill: 1.9; Bead autofluor: 4793; PrP 5UTR inh: -16; BJeLR viability: -2; Mtb hypoxia rep: 7; ugtP null kill: -6; Mtb hypoxia rep growth: 12

Results for O=C(CN1C(=O)CSC1=O)N1CCc2ccccc2C1 ?
RN4220 kill: 1.4; Bead autofluor: 6800; PrP 5UTR inh: -16; BJeLR viability: -3; Mtb hypoxia rep: 8; ugtP null kill: -1; Mtb hypoxia rep growth: 3

What do the screens show for `O=C(Nc1ccc(S(=O)(=O)N2CCCCC2)cc1)c1cnccn1`?
RN4220 kill: -2.9; Bead autofluor: inconclusive; PrP 5UTR inh: -11; BJeLR viability: -18; Mtb hypoxia rep: -15; ugtP null kill: -7; Mtb hypoxia rep growth: -1

How did CC(=NNC(=O)c1cc(-c2cccc([N+](=O)[O-])c2)n[nH]1)c1ccccc1O do in these assays?
RN4220 kill: 9.1; Mtb hypoxia rep: 12; ugtP null kill: -4; Mtb hypoxia rep growth: 5

How did CN(C)c1ccc(/C=N/N=C2/SC(CC(=O)O)C(=O)N2c2ccc(O)cc2)cc1 (stereo unspecified) do in these assays?
Bead autofluor: 4594; PrP 5UTR inh: -13; BJeLR viability: 2

How did CCOc1nc(C)ccc1-c1noc(-c2cccnc2)n1 do in these assays?
RN4220 kill: 3.9; Bead autofluor: 3446; PrP 5UTR inh: -29; BJeLR viability: -9; Mtb hypoxia rep: -2; ugtP null kill: 4; Mtb hypoxia rep growth: 2

Results for CC(=O)Nc1cccc(/C(C)=N/NC(=O)c2ccc3c(c2)OCO3)c1 ?
Bead autofluor: 4785; PrP 5UTR inh: -58; BJeLR viability: -5

What do the screens show for `COc1ccc(NS(=O)(=O)c2cccc(C(=O)NCc3cccnc3)c2)cc1`?
RN4220 kill: 2.9; Bead autofluor: 4316; PrP 5UTR inh: -1; BJeLR viability: -1; Mtb hypoxia rep: -1; ugtP null kill: 6; Mtb hypoxia rep growth: 0

Grouped by structure: the compounds so far with a CF3 group (two)
What do the screens show for `CN1CCc2nc(SCC(=O)Nc3ccc(OC(F)(F)F)cc3)c(C#N)c(-c3cccs3)c2C1`?
RN4220 kill: -1.5; Bead autofluor: 2300; PrP 5UTR inh: -59; BJeLR viability: -11; Mtb hypoxia rep: 6; ugtP null kill: 3; Mtb hypoxia rep growth: 3

Results for CCOC(=O)C1Nc2c(cc(C(F)(F)F)cc2[N+](=O)[O-])C2c3ccccc3CC12 (stereo unspecified) ?
RN4220 kill: -3.5; Bead autofluor: 3990; PrP 5UTR inh: -16; BJeLR viability: -3; Mtb hypoxia rep: 18; ugtP null kill: 1; Mtb hypoxia rep growth: 12

Next entries follow.
How did CCCCOC(=O)c1ccc(NS(=O)(=O)c2cc(-c3nnnn3CC)ccc2OC)cc1 do in these assays?
RN4220 kill: -9.5; Bead autofluor: 3245; PrP 5UTR inh: -8; BJeLR viability: -6; Mtb hypoxia rep: 13; ugtP null kill: -9; Mtb hypoxia rep growth: 3

What do the screens show for `CCC(C)n1c(SCC(=O)N(CC)c2c(N)n(Cc3ccccc3)c(=O)[nH]c2=O)nc2ccccc2c1=O` (stereo unspecified)?
RN4220 kill: 7.1; Bead autofluor: 3060; PrP 5UTR inh: -7; Mtb hypoxia rep: -2; ugtP null kill: 8; Mtb hypoxia rep growth: -6

How did Cc1ccccc1/C=C/C12NC(=O)CN1c1ccccc1C2(C)C (stereo unspecified) do in these assays?
RN4220 kill: 9.2; Bead autofluor: 3939; PrP 5UTR inh: -28; BJeLR viability: 4; Mtb hypoxia rep: -1; ugtP null kill: -11; Mtb hypoxia rep growth: -2

What do the screens show for `COc1ccc([N+](=O)[O-])cc1NC(=O)C(C)c1ccccc1` (stereo unspecified)?
RN4220 kill: 4.7; Bead autofluor: 2201; PrP 5UTR inh: -12; BJeLR viability: -17; Mtb hypoxia rep: 7; ugtP null kill: 2; Mtb hypoxia rep growth: 5

Results for CC1CCCN(C(=O)COC(=O)C2=COCCO2)C1 (stereo unspecified) ?
RN4220 kill: 5.4; Bead autofluor: 3769; PrP 5UTR inh: -16; Mtb hypoxia rep: 20; ugtP null kill: -5; Mtb hypoxia rep growth: 15

Results for Cn1c(C(=O)N2CCC(C(=O)NCc3ccccc3)CC2)cc2sccc21 ?
RN4220 kill: -1.6; Bead autofluor: 5895; PrP 5UTR inh: 1; BJeLR viability: 27; Mtb hypoxia rep: 13; ugtP null kill: 5; Mtb hypoxia rep growth: 1

What do the screens show for `COc1cc2ncnc(NCCCN3CCOCC3)c2cc1OC`?
RN4220 kill: 2.6; Bead autofluor: 6021; PrP 5UTR inh: -18; BJeLR viability: -2; Mtb hypoxia rep: 8; ugtP null kill: 5; Mtb hypoxia rep growth: 3

How did Cc1ccc(OCC(=O)N2CCCCCCC2)cc1 do in these assays?
RN4220 kill: 5.4; PrP 5UTR inh: -9; BJeLR viability: 7; ugtP null kill: 3

How did COc1cc(C(=O)N2CCN(C(=O)c3ccco3)CC2)cc(OC)c1OC do in these assays?
RN4220 kill: -3.8; Bead autofluor: 5019; PrP 5UTR inh: -1; BJeLR viability: -8; ugtP null kill: 9

Not a hit list; about 4.1% have a hit in one of these screens.
